# Screening data deposited in PubChem BioAssay by ICCB-Longwood Screening Facility, Harvard Medical School.
# HCMV UL50-53 inh = disrupts HCMV UL50-UL53 complex binding; HTRF UL50-UL53 interaction, normalized percent inhibition; inhibition, % (test concentration not listed); 190,000 tested, 0.15% active;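 active = both replicates at 50% or more, plus weaker picks with an unusually low signal ratio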;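 also: stock transfer was 100 nL into about 20 µL; 0% = negative control wells and 100% = wells with untagged competitor protein; inactives centre near -12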
# Sa growth inh = inhibitors of Staphylococcus aureus growth at 42 °C. S. aureus RN4220 growth, OD600, 20 h; active compounds read low. relative growth, % (no concentration beside the values). 170,000 tested, 0.53% active;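 active = growth at 42 °C up to 50% and 20 or more points under that at 30 °C, or under 10% at both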;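 also: 300 nL library stock went into each well; scaled to the means of positive and negative controls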
# GIV Gai3 FP = inhibitors of GIV GBA-motif binding to rat Galpha-i3; 210,000 tested, 0.42% active; percent of control (FP), % (test concentration not listed); Galpha-i3/FITC-GIV peptide fluorescence polarization, 90 min; active compounds read low; scaled: aluminum fluoride 0%, vehicle 100%;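 active = replicate mean at 85% of control or lower, very high polarization wells dropped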;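 also: lower values mean more displacement of the GIV peptide from Galpha-i3; wells of about 15 µL received 100 nL stock; the first replicate is given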
# Target sequence (P08753 whole entry, looked up): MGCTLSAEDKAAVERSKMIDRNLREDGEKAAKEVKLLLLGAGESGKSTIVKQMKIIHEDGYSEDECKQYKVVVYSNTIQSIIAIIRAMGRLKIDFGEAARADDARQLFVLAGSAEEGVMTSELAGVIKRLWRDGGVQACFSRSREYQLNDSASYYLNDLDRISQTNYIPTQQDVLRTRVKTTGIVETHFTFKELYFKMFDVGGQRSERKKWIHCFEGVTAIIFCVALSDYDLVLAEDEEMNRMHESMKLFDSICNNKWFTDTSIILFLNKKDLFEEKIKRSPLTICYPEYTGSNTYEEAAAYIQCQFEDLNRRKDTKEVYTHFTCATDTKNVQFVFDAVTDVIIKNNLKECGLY
# Sa growth inh second temp = also measured in Sa growth inh; calls as there; relative growth, %; measured here: growth at 30 °C;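 optical density after 20 h as mean of two plates; 100% = untreated growth and lower means inhibition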
# * = called active by the depositor; . = not tested or not shown; & = joins results of further samples.
1	COc1ccc(-c2n[nH]c(CCNC(=O)c3cccc(Cl)c3)n2)cc1
2	Cc1cccc2sc(NS(=O)(=O)c3ccc(C(=O)O)cc3)nc12
3	Cc1ccc(C)c(S(=O)(=O)N2CCN(C(=O)CCC(=O)Nc3ccc(OC(F)(F)F)cc3)CC2)c1
4	O=C(Cc1ccc(Cl)cc1)NCCS(=O)(=O)N1CCN(c2ccccc2)CC1
5	CCOc1ccc(CC(=O)Nc2ccc3c(c2)N(S(=O)(=O)c2ccccc2)CCC3)cc1

Assay by compound	1	2	3	4	5
HCMV UL50-53 inh	-7.0	-20.6	-27.0	-26.0	-30.8
Sa growth inh	.	101.1	70.2	101.0	.
Sa growth inh second temp	.	85.7	86.3	85.7	.
GIV Gai3 FP	101.9	99.8	.	104.4	104.1

6	O=C(C1CCC(CNS(=O)(=O)c2cccc3cccnc23)CC1)N1CCc2ccccc21 (stereo unspecified)
7	O=C(Nc1ccc(N2CCOCC2)cc1)C1c2ccccc2Oc2ccccc21
8	COc1ccc(C)cc1NC(=O)Nc1cc2c(cc1N1CCCC1)n(C)c(=O)n2C
9	O=C(O)CSc1sc(=S)sc1SCC(=O)O
10	O=C(NCCCc1nc2ccccc2n1Cc1ccccc1Cl)c1ccco1

Assay by compound	6	7	8	9	10
HCMV UL50-53 inh	.	0.1	-2.8	-117.0	-0.9
Sa growth inh	92.8	101.0	.	83.2	109.5
Sa growth inh second temp	83.7	92.8	.	81.7	75.7
GIV Gai3 FP	99.6	.	98.7	88.4	99.8

11	COc1cc(C(=O)Nc2nnc(CC(=O)N3CCOCC3)s2)cc(OC)c1OC
12	O=C(c1ccc2c(c1)OCO2)N1CCCC1
13	COC(=O)C1C(=O)C2=C(CC1C)Nc1ccccc1NC2c1ccccc1C (stereo unspecified)
14	CCCC1N=C2c3ccccc3N=C(SCC(=O)NCCc3ccc(Cl)cc3)N2C1=O (stereo unspecified)
15	Cc1sc2nc(SCC(=O)N3CCN(CCO)CC3)[nH]c(=O)c2c1C

Assay by compound	11	12	13	14	15
HCMV UL50-53 inh	-7.9	-0.9	1.7	.	-18.0
Sa growth inh	102.5	100.7	96.3	86.6	.
Sa growth inh second temp	90.4	82.9	86.1	85.0	.
GIV Gai3 FP	102.8	.	.	98.7	101.1

16	COC(=O)c1ccc(S(=O)(=O)N(C)C)n1C
17	CSC(=NC(C)(C)C)Nc1ccccc1Cl
18	CCSc1nn(CC(=O)Nc2ccc(F)cc2F)c(N)c1S(=O)(=O)c1ccc(Cl)cc1
19	COc1ccc(S(=O)(=O)N2CCCCCC2)cc1C(=O)OCC(=O)N1CC(C)OC(C)C1 (stereo unspecified)
20	C=CCn1c(CN(c2ccc(F)cc2)S(C)(=O)=O)nnc1SCC(=O)N1CCOCC1

Assay by compound	16	17	18	19	20
HCMV UL50-53 inh	-0.1	-9.4	6.1	4.4	4.4
Sa growth inh	109.9	113.8	.	105.9	.
Sa growth inh second temp	79.3	86.0	.	98.2	.
GIV Gai3 FP	101.7	101.5	103.5	.	101.5

21	Cc1cccc(-n2nnc(C(=O)N3CCc4ccccc4C3)c2N)c1
22	CCc1cc(SCC(=O)C(C#N)c2nc(C)cs2)n2c(nc3ccccc32)c1C#N (stereo unspecified)
23	Cc1nc2c(C(=O)NCc3ccc4c(c3)OCO4)cnn2c(C)c1Cc1c(F)cccc1Cl
24	COc1ccc2nc3c(cc2c1)c(=O)n(C)c(=O)n3C
25	COC(=O)c1cc(Cl)sc1NC(C)=O

Assay by compound	21	22	23	24	25
HCMV UL50-53 inh	2.8	-46.3	.	-46.2	-11.6
Sa growth inh	91.5	104.7	107.2	103.8	.
Sa growth inh second temp	73.3	78.3	93.7	84.7	.
GIV Gai3 FP	107.3	.	102.0&107.6	101.7	106.7

26	N#Cc1c(SC2CCCC2)nsc1SC1CCCC1
27	O=C(O)CCn1cccc1
28	Cc1cccc(CN(C(=O)Nc2ccc(Cl)c(Cl)c2)c2ccccn2)c1
29	COc1ccc(S(=O)(=O)N2CCN=C2N2CCN(c3ccc(F)cc3)CC2)cc1OC
30	Cc1ccc(-c2nonc2NC(=O)c2ccccc2)cc1

Assay by compound	26	27	28	29	30
HCMV UL50-53 inh	-5.8	-6.3	.	-20.4	-19.1
Sa growth inh	104.4	91.3	103.9	.	85.6
Sa growth inh second temp	66.0	88.2	88.9	.	81.0
GIV Gai3 FP	.	101.7	96.2	102.3	108.5

31	Cc1nn(C)c(C)c1CCNC(=O)NCC1CCCO1 (stereo unspecified)
32	COC(=O)c1ccc(-c2nnc(-c3ccc(N(C)C)cc3)o2)cc1
33	CCCOC(=O)COc1ccc2c(=O)c(Oc3ccccc3Br)coc2c1
34	CN1CN=C2SC3(COC(c4ccc(N(C)C)cc4)OC3)C(=O)N2C1 (stereo unspecified)
35	Cc1cc(C)cc(OCC(=O)Nc2c(C)ccc3nsnc23)c1

Assay by compound	31	32	33	34	35
HCMV UL50-53 inh	-8.5	-28.8	-14.2	.	-21.5
Sa growth inh	.	77.3	.	85.3	107.5
Sa growth inh second temp	.	81.2	.	88.3	92.7
GIV Gai3 FP	107.3	.	102.9	97.2	105.1

36	O=C(CSc1nc(=O)n(Cc2cccnc2)c2c1CCC2)Nc1cccc(Cl)c1
37	Cc1ccc(C(=O)Nc2nnc(SCc3cc(=O)c4c(C)ccc(C)c4[nH]3)s2)cc1
38	CCc1c(C)sc(NC(=O)CC#N)c1C#N
39	NC(=O)CCn1c2ccccc2c2ccccc21
40	COc1cccc(C(=O)Nc2ncc3c(n2)CC(C)(C)CC3=O)c1

Assay by compound	36	37	38	39	40
HCMV UL50-53 inh	.	.	-7.7	-7.3	2.0
Sa growth inh	110.9	95.7	111.3	107.8	105.6
Sa growth inh second temp	88.4	72.7	64.3	85.7	83.0
GIV Gai3 FP	107.0	96.9	159.3	102.3	106.7

41	COCCN1C(=S)NC2c3ccccc3OC13CCCC23 (stereo unspecified)
42	CCOC(=O)c1c(-c2ccc(Cl)cc2)nn2c1NCN(C1CCCCC1)C2
43	O/N=C/c1c(-c2ccccc2)nc2n1CCS2
44	CC(=O)Oc1ccc(Cl)cc1C(=O)O
45	CCc1cc(C(=O)N(CC)Cc2ccncc2)cs1

Assay by compound	41	42	43	44	45
HCMV UL50-53 inh	.	-43.9	-1.9	-10.5	-19.6
Sa growth inh	96.0	106.1	94.0	81.3	103.0
Sa growth inh second temp	85.5	87.8	104.8	76.6	103.1
GIV Gai3 FP	95.9	101.5	98.8	101.7	101.2

46	CCCCn1c(SC(F)F)nc2ccccc2c1=O
47	CC1Cc2cc(S(=O)(=O)CCC(=O)NCc3ccc(F)cc3)ccc2N1C(=O)C1CC1 (stereo unspecified)
48	CCC(C)NC(=O)N1CCN(Cc2nc3ccc(Cl)cc3o2)CC1 (stereo unspecified)
49	Cc1cccc(C(=O)N2N=C(c3cccc([N+](=O)[O-])c3)CC2(O)C(F)(F)F)c1 (stereo unspecified)
50	COc1ccc2sc(N(Cc3cccnc3)C(=O)c3cccs3)nc2c1

Assay by compound	46	47	48	49	50
HCMV UL50-53 inh	-23.5	6.0	-10.8	-40.8	.
Sa growth inh	104.7	.	.	.	114.3
Sa growth inh second temp	88.0	.	.	.	81.0
GIV Gai3 FP	.	106.7	107.4	102.8	105.3

# The closing two entries of the part above come first, to join the parts:
49	Cc1cccc(C(=O)N2N=C(c3cccc([N+](=O)[O-])c3)CC2(O)C(F)(F)F)c1 (stereo unspecified)
50	COc1ccc2sc(N(Cc3cccnc3)C(=O)c3cccs3)nc2c1
51	Fc1ccc2c(c1)-c1nc(C3CC3)ncc1CO2
52	Cc1cc(Sc2nnc(C)s2)c2ccccc2n1
53	CCCCc1nn2c(=O)cc(COC(=O)C3CCCCC3)nc2s1
54	COc1ccccc1OC(C)C(=O)Nc1ccc2c(c1)NC(=O)CO2 (stereo unspecified)
55	COC(=O)c1c(SCC(=O)Nc2cc(C)cc(C)c2)[nH]c2ccccc2c1=O

Assay by compound	49	50	51	52	53	54	55
HCMV UL50-53 inh	-40.8	.	1.4	-8.4	.	-22.7	-40.8
Sa growth inh	.	114.3	103.0	65.4	103.4	.	98.7
Sa growth inh second temp	.	81.0	75.0	10.9	92.1	.	80.1
GIV Gai3 FP	102.8	105.3	103.2	.	98.9	104.4	102.8

56	OC(COCc1ccco1)CN1CCc2ccccc2C1 (stereo unspecified)
57	COc1ccc(CCN2C(=O)N(c3ccc(C)cc3)C(=O)C2CC(=O)Nc2ccc(F)cc2)cc1 (stereo unspecified)
58	CC(C(=O)Nc1ccc2c(c1)OCCO2)n1nc(-c2ccc3c(c2)OCCO3)ccc1=O (stereo unspecified)
59	Cc1cc(F)ccc1S(=O)(=O)N(C(=O)c1ccncc1)c1ccc2oc(=O)sc2c1
60	CCCc1ccc(OCc2ccc(C(=O)n3cc(Cl)cn3)o2)cc1

Assay by compound	56	57	58	59	60
HCMV UL50-53 inh	-33.0	3.7	-50.2	-8.7	-40.5
Sa growth inh	108.7	96.4	.	48.7	96.9
Sa growth inh second temp	89.2	83.0	.	34.8	89.3
GIV Gai3 FP	.	98.8	104.2	102.0	105.4

# From no. 52 as far as 57, copied from above:
52	Cc1cc(Sc2nnc(C)s2)c2ccccc2n1
53	CCCCc1nn2c(=O)cc(COC(=O)C3CCCCC3)nc2s1
54	COc1ccccc1OC(C)C(=O)Nc1ccc2c(c1)NC(=O)CO2 (stereo unspecified)
55	COC(=O)c1c(SCC(=O)Nc2cc(C)cc(C)c2)[nH]c2ccccc2c1=O
56	OC(COCc1ccco1)CN1CCc2ccccc2C1 (stereo unspecified)
57	COc1ccc(CCN2C(=O)N(c3ccc(C)cc3)C(=O)C2CC(=O)Nc2ccc(F)cc2)cc1 (stereo unspecified)

Assay by compound	52	53	54	55	56	57
HCMV UL50-53 inh	-8.4	.	-22.7	-40.8	-33.0	3.7
Sa growth inh	65.4	103.4	.	98.7	108.7	96.4
Sa growth inh second temp	10.9	92.1	.	80.1	89.2	83.0
GIV Gai3 FP	.	98.9	104.4	102.8	.	98.8

# Later entries.
61	CC(C)C(=O)N(Cc1ccccc1)Cc1nc2ccccc2c(=O)[nH]1
62	CCOC(=O)c1c(N)sc2c1C(C(=O)OCC)CCC2 (stereo unspecified)
63	O=C1CSC(CC(=O)Nc2ccc(Cl)cc2)=N1
64	N#Cc1cc2c(nc1SCC(N)=O)CCCC2
65	CCCCOC(=O)c1ccc(NC(=O)c2cc3c(=O)n4cccc(C)c4nc3s2)cc1

Assay by compound	61	62	63	64	65
HCMV UL50-53 inh	6.2	-4.3	-16.5	-17.7	3.6
Sa growth inh	101.6	89.5	96.0	87.8	99.9
Sa growth inh second temp	80.5	91.2	88.8	81.8	90.2
GIV Gai3 FP	97.5	99.3	98.8	.	102.7

66	O=C(CSC1=Nc2ccccc2N=C(c2ccccn2)C1)NCc1ccccc1Cl
67	Cc1ccc(Cc2cn3cc(-c4ccccc4)nc3s2)cc1
68	CCc1ccc(C2C(C(=O)OC)=C(C)NC(C)=C2C(=O)OC)cc1
69	COC(=O)c1ccc(Cn2c(=O)cc(C(F)(F)F)c3c(C)nn(C)c32)cc1
70	N#C/C(=C\c1ccc(-c2ccccc2)o1)C(=O)Nc1ccccc1

Assay by compound	66	67	68	69	70
HCMV UL50-53 inh	-35.1	-11.3	-13.1	.	-29.8
Sa growth inh	.	86.5	86.9	73.6	100.6
Sa growth inh second temp	.	96.1	58.4	91.7	77.6
GIV Gai3 FP	103.4	102.9	98.1	94.8	36.5*

71	O=C(O)Cc1cnc(-c2ccc(F)cc2)o1
72	CC(OC(=O)C1CC2CCCC(C1)C2=O)c1nnc(-c2ccccc2)o1 (stereo unspecified)
73	CCCOc1ccc(Oc2nc(NCC(C)C)nc(N(C)C)n2)nn1
74	CC(=O)Nc1ccc(Nc2nc(-c3ccccc3)c3cc(Br)ccc3n2)cc1
75	O=C(NC1CC1)c1ccc2c(c1)NC(=O)c1ccccc1S2

Assay by compound	71	72	73	74	75
HCMV UL50-53 inh	-2.1	18.5	3.1	-11.1	-13.7
Sa growth inh	96.1	121.0	95.7	96.2	95.3
Sa growth inh second temp	88.2	100.3	90.9	82.5	76.5
GIV Gai3 FP	98.2	.	105.6	.	99.2

76	O=C(COC(=O)Cc1ccc(Cl)cc1)NC1CCCCCC1
77	C=CCNC(=O)C1C2C=CC(O2)C1C(=O)O (stereo unspecified)
78	CC(Sc1nnc(-c2c[nH]c3ccccc23)n1C)c1ccccc1 (stereo unspecified)
79	COc1ccc(-c2nc(N)n(C(=O)c3ccco3)n2)cc1
80	Nc1nc(N)nc(SCC(=O)N2N=C(c3ccc4ccccc4c3)CC2c2ccccc2)n1 (stereo unspecified)

Assay by compound	76	77	78	79	80
HCMV UL50-53 inh	-4.8	3.7	9.4	6.7	-16.2
Sa growth inh	93.1	98.4	90.5	113.9	67.1
Sa growth inh second temp	90.8	107.1	90.0	89.3	94.7
GIV Gai3 FP	.	102.6	106.9	102.9	.

81	CCNS(=O)(=O)c1ccc(Cl)cc1I
82	CCc1cc(C(=O)N2CCN(c3ccccc3)CC2)no1
83	Cc1occc1-c1nnc2sc(-c3cc4ccccc4[nH]3)nn12
84	CCn1c(O)c(N=NC(=O)Nc2ccc(Cl)c(Cl)c2)c2ccccc21
85	CN(C)[C@@H]1C(=O)C(C(=O)NCN2CCCC2)=C(O)[C@@]2(O)C(=O)C3=C(O)c4c(O)cccc4[C@@](C)(O)[C@H]3C[C@@H]12

Assay by compound	81	82	83	84	85
HCMV UL50-53 inh	-16.6	-16.6	-10.9	-6.7	-47.4
Sa growth inh	105.7	100.3	.	-0.8*	12.5
Sa growth inh second temp	90.9	85.0	.	-0.4*	0.1
GIV Gai3 FP	99.1	107.2	105.2	.	.
